# High-throughput results: PubChem, several laboratories
# HSV augment – HSV replication enhancement; HSV replication augmentation in cells, fold increase; maximum fold increase; 220,000 compounds, 0.005% hits; AID 1956;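 active means peak rise of 1.5-fold or more in the series; inconclusive means self-fluorescent or not available for retest; tested in PC3 cells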;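 further: first round at 10 µM; read as green reporter fluorescence; hits show the peak of a series up to 25 µM; 1 = signal of infected wells without compound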
# RGS16-Gao – RGS16-Galphao interaction regulator (human). O15492+P09471. bead-based flow cytometry RGS16-Galphao binding, fluorescence; actives lie on both sides. binding response (% of control), % at 10 µM. 220,000 compounds, 0.38% hits. AID 1441;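 active means below 25% or above 175%, edge rows of some plates excepted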;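 further: Galphao activated by GDP with aluminum fluoride before binding; 100% = wells without compound and 0% = beads without RGS; some results beyond the cut were filed as inactive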
# Target sequence (O15492 whole entry, looked up): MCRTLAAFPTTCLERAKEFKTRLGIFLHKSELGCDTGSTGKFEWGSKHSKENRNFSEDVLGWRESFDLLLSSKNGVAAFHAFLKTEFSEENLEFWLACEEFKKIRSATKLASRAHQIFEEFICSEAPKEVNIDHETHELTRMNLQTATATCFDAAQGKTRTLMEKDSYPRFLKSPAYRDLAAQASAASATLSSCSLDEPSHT
# Target sequence (P09471 whole entry, looked up): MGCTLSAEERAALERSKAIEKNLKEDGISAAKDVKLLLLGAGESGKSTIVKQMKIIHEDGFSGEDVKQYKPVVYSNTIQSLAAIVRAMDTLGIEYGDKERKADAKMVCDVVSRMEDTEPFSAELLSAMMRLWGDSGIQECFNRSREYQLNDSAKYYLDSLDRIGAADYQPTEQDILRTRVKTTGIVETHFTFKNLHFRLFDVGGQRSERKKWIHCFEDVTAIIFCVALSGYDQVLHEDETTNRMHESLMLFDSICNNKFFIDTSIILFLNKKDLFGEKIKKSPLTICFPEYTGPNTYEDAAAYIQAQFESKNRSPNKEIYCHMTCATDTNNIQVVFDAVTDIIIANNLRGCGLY
# Insulin prom inh – TRM-6 insulin promoter activity inhibition | inhibition, % at 2 µM | AID 1273 | 130,000 compounds, 0.9% hits | TRM-6 cells (human fetal islet line), insulin promoter-eGFP reporter, imaging; reporter expression induced with tamoxifen;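 active means inhibition above the mean plus 3 SD, with well images judged a real hit on visual review, cut at about 60% in these data, passing the limit was not always enough; inconclusive means inhibition over the cutoff but images rejected on review; inactive means inhibition not above the cutoff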
# PKD1 inh – PKD1 (human) kinase inhibition; Q15139; PKD1 kinase fluorescence polarization assay; inhibition, %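 (about 10 µM by stock and volumes)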; 200,000 compounds, 0.056% hits; AID 797;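 active means inhibition of 50% or more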;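 further: controls were vehicle for no effect and a reference inhibitor for full effect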
# GALR2 ag – GALR2 (human) receptor agonism; GALR2-expressing cells, agonist activation read-out; activation, %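 (tested at 5 µM)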; 140,000 compounds, 0.48% hits; O43603; AID 803;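 active means above mean plus 3 SD of all compounds, about 5% in these data, not always enough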;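 further: 0% = vehicle buffer wells and 100% = reference agonist at full effect; tested in CHO reporter cells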
# Target sequence (O43603 whole entry, looked up): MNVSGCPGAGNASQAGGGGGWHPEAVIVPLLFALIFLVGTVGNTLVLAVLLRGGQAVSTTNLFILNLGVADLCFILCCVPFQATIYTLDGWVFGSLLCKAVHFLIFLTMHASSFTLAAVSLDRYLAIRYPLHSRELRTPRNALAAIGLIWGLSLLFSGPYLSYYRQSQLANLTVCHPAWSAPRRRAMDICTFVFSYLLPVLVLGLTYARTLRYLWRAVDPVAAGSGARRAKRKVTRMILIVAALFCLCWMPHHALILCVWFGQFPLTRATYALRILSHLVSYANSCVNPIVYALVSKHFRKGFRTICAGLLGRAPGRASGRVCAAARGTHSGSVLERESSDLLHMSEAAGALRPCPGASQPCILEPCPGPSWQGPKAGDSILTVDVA
# Insulin prom inh cell count – recorded beside Insulin prom inh, whose call it bears; normalized cell count, %; measured here: cell count, toxicity; reference of the scale not given here;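 cells exposed to compound for 48 h; stained nuclei by imaging scaled within each plate; lower means fewer cells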
# HSV augment primary fold – second read-out of HSV augment, no call of its own (marks repeat the call); fold increase; compound at 10 µM; measured here: primary screen fold increase 10 uM; tested in PC3 cells;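 GFP signal in the first replicate; 1 = infected wells without compound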
# Starred values were filed as active, the others as inactive; i = inactive; ? = inconclusive; . = not tested or not shown. Outcome played no part in choosing rows; 1.3% or so of the library scored in one or more.
SMILES,HSV augment,HSV augment primary fold,RGS16-Gao,Insulin prom inh,Insulin prom inh cell count,PKD1 inh,GALR2 ag
Cc1cc(C)n(-c2nnc(NC(C)(C)C)nn2)n1,i,0.91,91,44,149,3,-1.4
COc1ccccc1N1CCN(C(=O)/C=C/c2cccc([N+](=O)[O-])c2)CC1,i,1.1,104,.,.,.,.
CC(C)c1[nH]nc2c1C(Cc1ccccc1)C(C#N)=C(N)O2 (stereo not given),i,0.93,105,46,171,3,-1.5
NNC(=O)C(=O)Nc1ccc(Cl)c(Cl)c1,i,1.1,105,.,.,.,.
CC(c1ccccc1)n1c(-c2ccncc2)n[nH]c1=S (stereo not given),i,0.93,99,-75,119,-4,-2.5
CCn1c(SCC(=O)NNC(=O)Cc2ccccc2)nnc1-c1ccccc1,i,0.99,87,0,70,1,1.1
CCCN1C(=O)S/C(=C/c2ccc(N3CCOCC3)o2)C1=O,?,.,95,.,.,.,.
CCNc1nc(NCC)n2c(SCC(=O)c3ccccc3F)nnc2n1,i,0.9,98,.,.,-4,.
COc1cccc(OCCCN2CCCCC2)c1,i,1.1,98,28,107,5,-1.2
N=c1c2c(ncn1CCCO)Oc1c(ccc3ccccc13)C2c1ccccc1 (stereo not given),i,0.56,112,.,.,.,.
Cc1[nH]c(=O)[nH]c(=O)c1/C=N/NC(=O)[C@H](C)NC(=O)OC(C)(C)C,i,1,101,18,62,-6,-1.4
CNCc1ccccc1Sc1ccc(O)c(O)c1,i,0.93,95,-17,98,11,-0.1
CC(=O)c1cccc(CN2CCN(CC=C(C)C)C(CCO)C2)c1 (stereo not given),i,0.97,95,.,.,.,.
C=C1CCN([C@H](C(=O)Nc2ccc(OC)cc2)C(C)C)S(=O)(=O)c2ccccc21,i,0.86,103,.,.,.,.
CCOC(=O)c1c(C)[nH]c(C(=O)C(C)OC(=O)c2cccc(OCc3c(C)noc3C)c2)c1C (stereo not given),i,1,99,.,.,-8,0.7
O=S(=O)(NN=C1CCCCCCC1)c1ccc(Br)cc1,i,1,106,74,127,-3,-1.9
Cc1ccc(-n2c(C)nn(Cc3ccc([N+](=O)[O-])cc3)c2=O)cc1,i,0.96,104,.,.,-1,.
CC1CCN(C(=O)c2cc(-c3ccc(Cl)c(Cl)c3)on2)CC1,i,0.91,103,38,83,0,0.1
O=C(c1ccc2c(c1)N(Cc1ccccc1)C(=O)CS2)N1CCOCC1,i,0.93,92,60,98,-16,-0.7
CCc1nc(SCC(=O)NCC2CCCO2)c2oc3ccccc3c2n1 (stereo not given),i,0.89,95,-17,143,-12,-3.0
CS(=O)(=O)N(CC(=O)N/N=C/c1ccccn1)c1ccc(Oc2ccccc2)cc1,i,0.83,99,.,.,-1,.
COc1ccccc1NC(=O)CNC(=O)c1ccccc1C,i,1,100,39,60,-2,-0.9
COc1cccc(CNC(=S)NC2CCCC2)c1,i,1.2,60,-9,82,1,-1.4
CNC(=O)c1c(NC(=O)c2ccc(N3C(=O)CCC3=O)cc2)sc2c1CCCC2,i,0.79,102,.,.,4,.
CCOP(=O)(OCC)C(Nc1cccc([N+](=O)[O-])c1)c1ccc(OC)cc1 (stereo not given),i,0.95,100,.,.,.,.

# Whole records from above:
# CCc1nc(SCC(=O)NCC2CCCO2)c2oc3ccccc3c2n1 (stereo not given) is entered as HSV augment = i; HSV augment primary fold = 0.89; RGS16-Gao = 95; Insulin prom inh = -17; Insulin prom inh cell count = 143; PKD1 inh = -12; GALR2 ag = -3.0
# NNC(=O)C(=O)Nc1ccc(Cl)c(Cl)c1 is entered as HSV augment = i; HSV augment primary fold = 1.1; RGS16-Gao = 105; Insulin prom inh = .; Insulin prom inh cell count = .; PKD1 inh = .; GALR2 ag = .
# CC(=O)c1cccc(CN2CCN(CC=C(C)C)C(CCO)C2)c1 (stereo not given) is entered as HSV augment = i; HSV augment primary fold = 0.97; RGS16-Gao = 95; Insulin prom inh = .; Insulin prom inh cell count = .; PKD1 inh = .; GALR2 ag = .

# Later entries
SMILES,HSV augment,HSV augment primary fold,RGS16-Gao,Insulin prom inh,Insulin prom inh cell count,PKD1 inh,GALR2 ag
COc1ccc(/C=C/C(=O)O)cc1S(=O)(=O)NCC1CCCO1 (stereo not given),i,1.1,99,.,.,.,.
CCCn1c(C)cc(C(=O)CN2C(=O)c3cccc(N)c3C2=O)c1C,.,.,101,9,120,-2,0.0
Cc1cc(C)cc(OCCCOc2cccc3cccnc23)c1,i,0.86,104,.,.,1,-4.5
Cc1cc2cc(C)c3nnc(SCC(=O)Nc4ccc(S(=O)(=O)N5CCCCC5)cc4)n3c2cc1C,i,0.88,105,-5,126,4,0.2
Cc1cc(C)cc(OCC(=O)O/N=C(\N)c2ccccn2)c1,i,0.98,78,16,46,-4,-3.2
O=C(CN1CCN(S(=O)(=O)c2ccc(F)cc2)CC1)c1ccc(O)c(O)c1,i,1.1,94,.,.,0,.
COc1cccc(Nc2ccc(Nc3cccc(OC)c3)nn2)c1,i,0.92,124,.,.,-6,-0.2
Cc1cc(NC(=O)c2ccc3c(c2)C(=O)N(Cc2cccnc2)C3=O)no1,i,0.68,102,62,77,2,-1.4
CC(=O)c1c(C)nc2cc(Cl)ccc2c1N,.,.,98,96*,171*,2,-3.2
COc1ccc(-c2csc(NC(=O)CN3C(=O)CCC3=O)n2)c(OC)c1,i,0.95,107,42,114,-4,-0.4
Cc1ccc(NC(=O)c2ccc(NCCc3ccccc3)c([N+](=O)[O-])c2)cc1F,i,0.87,16,-14,74,-4,-0.2
COc1ccc(N(CC(O)Cn2c3ccccc3c3ccccc32)S(=O)(=O)c2ccccc2)cc1 (stereo not given),i,0.9,95,-58,66,-3,-1.3
CCn1c(SCC(=O)N(Cc2ccccc2)C2CCS(=O)(=O)C2)nc2ccccc2c1=O (stereo not given),i,0.87,118,.,.,-8,0.6
COC(=O)[C@H](Cc1ccccc1)NC(=O)NCc1ccc(C)cc1,i,1.3,96,.,.,.,.
CS(=O)(=O)N1CCc2cc(S(=O)(=O)NCCNS(=O)(=O)c3ccc4c(c3)CCN4S(C)(=O)=O)ccc21,i,0.84,124,0,167,1,.
CCOC(=O)CCNC(=O)N1CCCC(C(=O)c2ccccc2SC)C1 (stereo not given),i,1,53,.,.,-4,.
O=C(CCC1CCCN(C(=O)Cc2cccc(F)c2)C1)N1CCN(c2ccccn2)CC1 (stereo not given),i,1,110,-85,91,-4,.
O=S(=O)(NCC1CCCO1)c1cc(Cl)ccc1Br (stereo not given),i,0.97,101,11,126,7,-1.7
Oc1ccc(NC(=S)N=Nc2c(O)[nH]c3ccccc23)cc1,i,0.94,99,-16,144,-2,.
CCCCNS(=O)(=O)c1ccc2nc(-c3cccnc3)cc(C(=O)NCCCOCC)c2c1,i,0.96,103,.,.,0,.
Cn1c(SCC(=O)c2ccc3c(c2)NC(=O)CO3)nc2ccccc21,i,0.89,101,-55,70,-8,.
CCC(=O)Nc1cccc(Br)c1,i,1,106,62,134,-1,-0.4
CC(C)c1ccc(S(=O)(=O)N2CCCCC2)cc1,i,1.1,102,30,95,-1,.
COc1cccc(NC(=O)Nc2ccncc2)c1,i,1.1,100,.,.,11,.
Cc1cc(-c2ccccc2)nc(N/N=C/c2ccc([N+](=O)[O-])cc2)n1,i,1,108,-14,113,-6,-0.4

# Going on with the list.
SMILES,HSV augment,HSV augment primary fold,RGS16-Gao,Insulin prom inh,Insulin prom inh cell count,PKD1 inh,GALR2 ag
COc1ccc(N2C(=O)CS/C2=C\[N+](=O)[O-])cc1,i,1.1,99,.,.,-5,-0.1
O=C(NCc1ccccc1)C1CCCN(S(=O)(=O)c2cccnc2)C1 (stereo not given),i,1,101,-31,59,-10,-0.5
CCOC(=O)N/N=C/c1c(C)c(C(=O)c2ccc(F)cc2)n2ccccc12,i,0.97,101,57,138,-3,.
COc1ccc(CNC(=O)c2coc(=O)c3ccccc23)cc1,i,1,113,20,78,0,.
CC(CCc1ccccc1)NC(=O)COc1ccc(S(=O)(=O)N2CCOCC2)cc1[N+](=O)[O-] (stereo not given),i,0.9,111,-47,46,-10,-0.6
O=C(O)c1cc(-c2ccc(/C=N/N3C(=O)C4C5C=CC(C6CC56)C4C3=O)o2)ccc1Cl (stereo not given),i,0.89,100,29,61,-6,.
Cn1cccc1CC(=O)N/N=C\c1cccs1,.,.,51,.,.,3,-1.9
COCCN(Cc1cc2cc3c(cc2nc1Cl)OCO3)C(=O)Nc1ccccc1OC,i,1.6,99,30,69,2,-2.3
CCc1cc2c(=O)c(-c3nc4ccccc4[nH]3)coc2c(CN2CCCCC2)c1O,i,0.96,105,.,.,.,.
Cc1ccc(C)c(-n2nnnc2SCC(=O)NCCC2=CCCCC2)c1,i,0.97,98,i,25,0,-1.6
C/C(N)=C(/C#N)C(=O)CSc1nnc(-c2ccccc2Br)o1,i,0.95,101,5,104,-9,-2.1
Cc1c(C#N)c2ncn(Cc3ccccc3)c(=O)c2n1-c1ccccc1,i,0.93,101,0,130,5,-0.8
CC1=Nc2cc(C(=O)O)ccc2Sc2ccc(C)cc21,i,0.91,92,3,95,-9,.
CCCC/C(O)=C1\C(=O)CCCC1=NCCc1c(C)[nH]c2ccccc12,i,1.1,104,.,.,.,.
C=CCNC(=O)c1cc(Cl)ccn1,i,0.99,97,.,.,-1,.
C/C(=N/NC(=O)c1cccc(C)c1)c1c(O)cc(C)oc1=O,i,0.88,60,0,123,-3,0.8
Cc1nn(C)cc1CNC(=O)c1ccc(Br)o1,i,0.95,49,-27,126,-17,0.3
COC(=O)c1scc(C)c1S(=O)(=O)Nc1ccc(C)cc1,i,1.1,82,.,.,.,.
C#CCSc1nc2[nH]ncc2c(=O)[nH]1,i,0.95,39,28,95,-15,0.3
Cc1cc(N2CCN(C3CCCCC3)CC2)n2nc(C)nc2n1,.,.,81,-20,108,1,-2.6
COc1cc(SC)ccc1C(=O)OCC(=O)NC1CC1,i,1,102,.,.,-6,.
CCC(C(=O)NC1CCCC1)N(C(=O)Cn1nnc(-c2ccc(C)cc2)n1)C1CCCC1 (stereo not given),i,0.85,110,-8,90,3,-3.1
Cc1cc(S(=O)(=O)n2cnc3ccccc32)c(C)cc1Cl,i,0.88,110,-11,111,-12,-0.4
CS(=O)(=O)N1CCN(c2ncnc3c2cnn3-c2ccccc2)CC1,i,0.99,97,.,.,-9,.
COc1cc(/C=C2/NC(=O)NC2=O)cc(Br)c1OCc1cccc(C(=O)O)c1,i,0.86,97,.,.,5,.

# Another view of some results above.
# Sequence of screens – HSV augment, HSV augment primary fold, RGS16-Gao, Insulin prom inh, Insulin prom inh cell count, PKD1 inh, GALR2 ag
- CCCCNS(=O)(=O)c1ccc2nc(-c3cccnc3)cc(C(=O)NCCCOCC)c2c1
 : i, 0.96, 103, ., ., 0, .
- Cn1c(SCC(=O)c2ccc3c(c2)NC(=O)CO3)nc2ccccc21
 : i, 0.89, 101, -55, 70, -8, .
- CCC(=O)Nc1cccc(Br)c1
 : i, 1, 106, 62, 134, -1, -0.4
- CC(C)c1ccc(S(=O)(=O)N2CCCCC2)cc1
 : i, 1.1, 102, 30, 95, -1, .

# Further structures:
SMILES,HSV augment,HSV augment primary fold,RGS16-Gao,Insulin prom inh,Insulin prom inh cell count,PKD1 inh,GALR2 ag
CC(C)CCn1cnc2c(NCc3ccccc3)ncnc21,i,0.85,99,55,203,-5,-0.4
O=C(CN1CCC(n2nnc3cc(F)ccc32)CC1)NC1CC1,i,1,99,.,.,-9,-1.8
C/C(=N\NC(=O)CN1CCN(S(=O)(=O)c2ccc(C)cc2)CC1)c1ccncc1,i,1,87,.,.,.,.
CCCc1nc(NCc2ccncc2)c2nnn(Cc3ccccc3F)c2n1,i,0.88,104,53,50,2,-1.6
O=C(NCCC1=CCCCC1)c1cc2ccccc2oc1=O,i,0.88,97,.,.,.,.
CCc1nn(CC(=O)Nc2cc(C)ccc2C)c(=N)s1,i,0.92,101,-109,62,-4,.
O=C(CCl)N1CCN2C(=O)c3ccccc3C12c1ccc(Cl)cc1 (stereo not given),i,1.1,100,-12,140,-8,.
CCc1nnc(NC(=O)CCN(c2cc(C)cc(C)c2)S(=O)(=O)c2ccc(Cl)cc2)s1,i,0.84,100,.,.,8,0.3
COC(=O)c1c(NC(=O)CCC(=O)O)sc2c1CCCCC2,i,0.97,100,.,.,-6,0.1
COc1ccc(-n2ncc3c(=O)n(CC(=O)N4CCCc5ccccc54)cnc32)cc1,i,0.92,94,25,118,-1,0.6
CCN(CC)CCNC(=O)/C(=C/c1cn(C)c2ccccc12)NC(=O)c1ccc(OC)c(OC)c1,i,1,101,.,.,.,.
Clc1ccc(C2[C@H]3CN(CC4CCCCC4)[C@H](c4ccccc4)C34CC2(c2ccccc2)C4)cn1 (stereo not given in full),i,0.85,108,.,.,.,.
